# Source: PubChem BioAssay
# 2A firefly: FMDV 2A StopGo reporter, firefly signal; Potency, µM (highest dose often 57.5 µM), inactives show top-dose signal change, negative = less light; HEK cells with a luciferase reporter of 2A StopGo recoding; 120,000 compounds, 0.23% hits; AID 1745856; active = well fitted falling curve with a large enough effect; inconclusive = small, poorly fitted or top-dose-only effect; inactive = no such curve, though single readings can be large or run the other way; further: nearly all actives have a fitted effect of over 60% in size; overnight with compound
# StopGo RLuc: FMDV 2A StopGo reporter, Renilla signal | HEK cells with a luciferase reporter of 2A StopGo recoding | 120,000 compounds, 0.32% hits | Potency, µM (series often up to 57.5 µM), for inactives: top-dose signal change, negative = less light; active means well fitted falling curve with a large enough effect; inconclusive means small, poorly fitted or top-dose-only effect; inactive means no such curve, though single readings can be large or run the other way; further: nearly all actives have a fitted effect of over 55% in size; overnight with compound
# Active calls of the source: *; ? = inconclusive; & = joins results of further samples; [ ] = dose if it differs, or a comment. On the % scale 0 is the no-effect control and ±100 the full control effect; potency means the concentration at half of the fitted maximal effect.
# Preview (two entries):
cpd	smiles	2A firefly	StopGo RLuc
1	Cc1ccc(Cl)cc1NC(=O)N1CCCC1c1ccco1 (stereo not given)	5%	5%
2	N#Cc1ccc(CCC(=O)c2cccs2)cc1	0%	-8%

# Main list, from the first entry:
cpd	smiles	2A firefly	StopGo RLuc
1	Cc1ccc(Cl)cc1NC(=O)N1CCCC1c1ccco1 (stereo not given)	5%	5%
2	N#Cc1ccc(CCC(=O)c2cccs2)cc1	0%	-8%
3	N#Cc1ccccc1S(=O)(=O)N1CCCC(c2nc3c(nnn3Cc3cccc(Cl)c3)c(=O)[nH]2)C1 (stereo not given)	-11%	3%
4	COC(=O)[C@]12C[C@H](CC(=O)N3CCCC3)C(=O)N(Cc3ccc(Cl)cc3Cl)C1=C[C@H](COCc1ccccc1)O[C@@H]2C	6%	12%
5	COc1ccc(N2CC(c3nc(-c4ccccn4)no3)CC2=O)cc1OC (stereo not given)	6%	-7%
6	Cn1c(=O)c(=O)n(C)c2cc(C(=O)NCc3ccccc3Cl)ccc21	21%	-4%
7	COC(=O)c1ccccc1NC(=O)Cn1c(=O)n(CCCC(=O)NCc2ccccc2Cl)c(=O)c2ccccc21	-9%	1%
8	Clc1ccc(-c2nnn3c2nc(NC2CCCCC2)c2ccccc23)cc1	2%	-8%
9	O=C(Nc1ccc(CC(=O)N2CCOCC2)cc1)c1ccc(Cl)cc1	90%[activator]	-12%
10	O=C(COc1ccc2ccc(=O)oc2c1)N1CCc2ccccc21	51%[activator]	-9%
11	COc1ccc(/C=C(\C#N)C(=O)NC2CC2)cc1	34%[activator]	11%
12	COc1ccc(OC)c(NC(=O)Cn2cc(C(=O)c3cccs3)c3ccccc32)c1	?	-5%
13	Cc1ccc(OCCC(=O)NC(CC(C)C)C(=O)N(C)C)cc1C (stereo not given)	-4%	-9%
14	CNC(NC(=O)c1ccc(Cl)cc1)C(Cl)(Cl)Cl (stereo not given)	13%	2%
15	CC(C)Cn1c(SCc2noc(-c3ccccc3Cl)n2)nnc1N1CCOCC1	-2%	-5%
16	Cc1cccc(N2CCN(c3c(CN4CCCC4)c(=O)oc4ccccc34)CC2)c1C	8%	-8%
17	COc1ccccc1CNC(=O)c1cn(C)c2ccc(S(=O)(=O)N3CCC(C)CC3)cc2c1=O	-14%	-11%
18	CCSc1nc2c(c(=O)n(C)c(=O)n2C)n1CCc1ccc(OC)cc1	?	?
19	C(=NCc1ccccc1)c1cn(-c2ccccc2)nc1-c1cccs1	183%&110%[activator]	23%
20	Cc1ccc(C)c(N2CCN(C(=O)Cn3nc(C)c4sc5ccccc5c4c3=O)CC2)c1	-9%	-1%
21	Cc1ccc(C(=O)Nc2ccc(S(=O)(=O)N3CCC(c4nc5ccccc5s4)CC3)cc2)cc1	-3%	-5%
22	C=CCn1c(N)c(C(=O)NCc2ccccc2)c2nc3ccccc3nc21	?	61%[activator]
23	O=C1[C@H](CC[C@H](O)c2ccc(F)cc2)[C@@H](c2ccc(O)cc2)N1c1ccc(F)cc1	11%[11.5 µM]	9%
24	CCOc1ccc(-c2nc(CNC(=O)Nc3ccccc3Cl)c(C)o2)cc1	0%	14%
25	O=[N+]([O-])c1cc(S(=O)(=O)Nc2cccc(Cl)c2)ccc1N/N=C/c1cccc(F)c1	28%	228%[activator]
26	Cc1ccc(C(=O)NCc2nc(-c3ccc(C)cc3)oc2C)cc1	19%	3%
27	Cn1c(=O)c2c(nc(CN3CCN(c4ccccc4F)CC3)n2Cc2ccccc2F)n(C)c1=O	-5%	-6%
28	Cc1ccc2occ(CC(=O)Nc3ccc(S(=O)(=O)N4CCCC(C)C4)cc3)c2c1 (stereo not given)	-15%	166%[activator]
29	S=C(NCC(c1ccccc1)c1ccccc1)Nc1ccc(Cl)cc1	?	?
30	CC(=O)Nc1ccc(NC(=O)COC(=O)c2ccccc2Sc2ccccc2C#N)cc1	20%	-4%

# Four entries drawn at random from the list so far:
cpd	smiles	2A firefly	StopGo RLuc
29	S=C(NCC(c1ccccc1)c1ccccc1)Nc1ccc(Cl)cc1	?	?
20	Cc1ccc(C)c(N2CCN(C(=O)Cn3nc(C)c4sc5ccccc5c4c3=O)CC2)c1	-9%	-1%
15	CC(C)Cn1c(SCc2noc(-c3ccccc3Cl)n2)nnc1N1CCOCC1	-2%	-5%
9	O=C(Nc1ccc(CC(=O)N2CCOCC2)cc1)c1ccc(Cl)cc1	90%[activator]	-12%

# Next results follow.
cpd	smiles	2A firefly	StopGo RLuc
31	Cc1cc(C)c(NC(=O)CN(CC(=O)O)CC(=O)O)c(C)c1Br	-5%[11.5 µM]	-3%
32	O=C(c1c(F)cccc1Cl)N1CCC2(CC1)OCCN2S(=O)(=O)c1ccccc1	-6%	171%[activator]
33	Cc1ccc(NC(=O)CSc2ncccc2C#N)cc1C	0%	14%
34	COc1ccc(-n2ccn(Cc3ccccc3C)c(=O)c2=O)cc1	-3%	20%
35	Cc1ccc2c(Cl)c(C(=O)NCC(c3ccco3)N3CCCC3)sc2c1 (stereo not given)	20%	-2%
36	Clc1ccccc1-c1nc(N2CCCCC2)c2ccccc2n1	-9%	-13%
37	CC(=O)c1ccc(NC(=O)c2sc3nc4c(cc3c2N)N2CCC4CC2)cc1	144%[activator]	-1%
38	Cc1ccc(CSc2cn(CCNC(=O)c3cccs3)c3ccccc23)cc1	-25%	-9%
39	CC(C)=NNC(=O)c1ccccc1	0%	15%
40	Cc1c(-c2ccccc2)oc2c(C(=O)NCCCN3CCCCC3)cccc2c1=O	11%	0%
41	COCCn1cnnc1SCC(=O)c1cccc(OC)c1	20%	14%
42	Nc1c(C(=O)NC2CCCC2)nnn1-c1ccccc1	153%[activator]	2%
43	O=C(COC(=O)c1ccccc1)c1ccc(-c2ccccc2)cc1	48%[activator]	-7%
44	CC(=O)c1c(C)oc2ccc(NS(=O)(=O)c3ccc(C(C)C)cc3)cc12	?	?
45	Cc1ccc(-n2c(SCC(=O)Nc3cccc(F)c3)nc3c(oc4ccccc43)c2=O)cc1C	7%	-7%
46	CC(C(=O)O)c1cccc(Oc2ccccc2)c1 (stereo not given)	8%[11.5 µM]	-2%
47	CCCn1cnc2cc(NCc3ccccn3)ccc21	121%[activator]	-5%
48	CCC(=O)Nc1ccc2nc(SCc3ccc(F)c4ccccc34)sc2c1	5%	-5%
49	COc1cccc(Cn2c(CNS(=O)(=O)c3ccc(Cl)s3)nc3cccnc32)c1	16%	110%[activator]
50	O=C(c1cc2c(s1)CCCC2)N1CCN(S(=O)(=O)c2ccccc2)CC1	0%	10%
51	CCOC(=O)c1cnc2c(Cl)cc(Cl)cc2c1Nc1ccccc1OC	-10%	-10%
52	COC(=O)[C@]12C[C@H](CC(=O)NCCC(C)C)C(=O)N(CCc3ccc(OC)c(OC)c3)C1=C[C@H](C(C)C)O[C@@H]2C1CC1	9%	72%[activator]
53	CCCC(=O)N1c2ccccc2-c2nnc(SC)nc2OC1c1sccc1C (stereo not given)	11%	12%
54	COc1ccc(/C=C(/F)c2nc3ccccc3s2)cc1	?	0%
55	Cc1cccc(NC(=O)C(=O)NCC(c2ccc3c(c2)OCO3)N2CCOCC2)c1C (stereo not given)	0%	-9%
56	O=C(CC1C(=O)NCCN1C(=O)CN1CCN(c2ncccn2)CC1)Nc1ccc2c(c1)OCO2 (stereo not given)	-4%	-8%
57	Cc1ccc(C(NC(=O)c2ccccc2)c2cccnc2)cc1C (stereo not given)	8%	30%
58	COc1ccccc1-n1c(=O)n(Cc2cccc(Cl)c2)c(=O)c2cccnc21	15%	1%
59	CCOC(=O)CSc1nc2cc3c(cc2c(=O)n1CCCC(=O)NCCc1ccc(OC)c(OC)c1)OCO3	-6%	-6%
60	Cc1cccc(C2(c3cccc(C)c3)CC2C(=O)N/N=C/C=C/c2ccccc2)c1 (stereo not given)	17%	11%
61	COCCCNC(=O)c1cccc2c(=O)c(C)c(-c3ccccc3)oc12	-3%	0%
62	Cc1ccc(CNc2ccc(O)cc2)s1	0%	57%[activator][1.06 µM]
63	Cc1ccc(C(=O)Nc2ccccc2C(=O)OCc2cc(=O)n3nc(C4CC4)sc3n2)cc1	6%	3%
64	N#Cc1ccc(CSc2nnc(-c3ccc(Br)cc3)o2)cc1	-6%	-10%
65	Cc1ccc(C)c(N2CCN(c3ncnc4c3nc3n4CCCC3)CC2)c1	-10%	-14%
66	COc1ccc(C)cc1NC(=O)c1cnc(N2CCOCC2)c2ccccc12	16%	0%
67	COc1ccccc1CNC(=O)CSc1nc(=O)[nH]c2c1CCCC2	-20%	-6%
68	COc1ccccc1OCCCn1cc(C(=O)C(F)(F)F)c2cc(Br)ccc21	4%	13%
69	CCN1CCN(c2nc3c(c(=O)[nH]c(=O)n3C)n2Cc2c(Cl)cccc2Cl)CC1	-6%	-13%
70	CCC(C)NC(=O)C1=CC(c2cccc(OC)c2)=NS(=O)(=O)N1C (stereo not given)	0%	4%
71	CN(Cc1ccc(C(=O)NC2CC2)cc1)C(=O)/C=C/c1cccc(C(F)(F)F)c1	37%[activator]	71%[activator]
72	COc1ccc(Cl)cc1NC(=O)c1ncoc1-c1ccc(OC)c(OC)c1	0%	-1%
73	Cc1ccccc1CSCC(=O)Nc1sccc1C#N	205%[activator]	-14%[1.06 µM]
74	CC(Oc1ccc(Cl)c(Cl)c1)C(=O)NN (stereo not given)	11%	3%
75	Cn1c(=O)c2c(nc(SCC(=O)O)n2Cc2cccc(Cl)c2)n(C)c1=O	-2%	-6%
76	C=C(C)CN(CC)C(=O)c1ccc(NC(=O)c2cccs2)cc1	167%[activator]	18%
77	O=C(CSc1ncc(C(F)(F)F)cc1Cl)N1CCc2ccccc21	0%	14%[1.06 µM]
78	CC(C)(C)c1ccc(C(CC(=O)O)NC(=O)c2ccccc2)cc1 (stereo not given)	0%	11%
79	CCOC(=O)NCC(=O)NCc1cccnc1	-5%	1%
80	Cc1ccc2c(c1)C(=O)C(=O)N2Cc1ccc(OCCC(C)C)cc1	15%&0%	5%&-24%
81	NS(=O)(=O)c1ccc(Nc2ncc([N+](=O)[O-])cc2[N+](=O)[O-])cc1	20%	19%
82	C/C(=N/Nc1ccc(S(N)(=O)=O)cc1[N+](=O)[O-])c1cccc(Br)c1	7%	-1%
83	CN(C)CC(O)COc1ccc(NC(=O)Nc2cccc(F)c2)cc1 (stereo not given)	187%[activator]	6%
84	Cc1cccc(OCc2cccc(C(N)=O)c2)c1	7%	28%
85	CCC(=O)NCC(c1ccc2c(c1)OCO2)N1CCN(c2ccccc2)CC1 (stereo not given)	-18%	13%
86	CC(C)Oc1ccc(C(=O)N2CC(=O)Nc3ccc(F)cc3C2c2ccc(F)cc2)cc1 (stereo not given)	9%	67%[activator]
87	Cc1cccc(-c2nc(-c3ccc4c(c3)[nH]c(=O)n4C)no2)c1	2%	-10%
88	Cc1cccc(C(=O)Nc2nnc(S(=O)(=O)N3CCC(C)CC3)s2)c1	27%	16%
89	Cc1ccc(C)c(Cn2c(N3CCN(Cc4ccc(F)cc4)CC3)nc3c2c(=O)[nH]c(=O)n3C)c1	3%	-4%
90	Cc1ccc(C(=O)Nc2cccc3cnccc23)cc1S(=O)(=O)N1CCCCCC1	?	?

# (further entries)
cpd	smiles	2A firefly	StopGo RLuc
91	Cc1ccc(-c2cc(C(=O)Nc3ccc(S(=O)(=O)N4CCCCC4C)cc3)no2)cc1 (stereo not given)	7%	4%
92	CCOc1ccc(CCNC(=O)c2nn(C)c3c2CS(=O)(=O)c2ccccc2-3)cc1	-15%	39%[activator]
93	Cc1ccccc1CNC(=O)C(=O)NCC(c1cccs1)S(=O)(=O)c1ccc(Cl)cc1 (stereo not given)	?	?
94	CC(=O)NNC(=S)Nc1ccccc1C(F)(F)F	-14%	4%
95	CC1(C)CC(NC(=O)CCc2ccccc2)CC(C)(CNC(=O)CCc2ccccc2)C1 (stereo not given)	-5%	28%
96	COCc1ccccc1CNC(=O)CC(C)(C)C	-7%	3%
97	CCN(CC)c1nc2ccccc2nc1C(=O)Nc1ccc(F)cc1F	13%	5%
98	COc1cc(C)ccc1OCc1nnc(SCC(=O)N2CCc3ccccc3C2)n1C	-3%	10%
99	O=C(Nc1ccc(F)cc1F)C(Cc1ccccc1)N1Cc2ccccc2C1=O (stereo not given)	-24%	82%[activator]
100	CCN(CC)CCCn1c(-c2ccc(COc3ccc(Cl)cc3Cl)cc2)n[nH]c1=S	-8%	-16%
101	CC(C)(C(=O)NCc1ccc(CN2CCCC2)cc1)c1ccccc1	15%	13%
102	COc1cc(C2c3c(-c4cc(C)ccc4O)n[nH]c3C(=O)N2CCCO)ccc1OCCC(C)C (stereo not given)	?	-21%
103	CC1(C)CC(=O)C2=C(C1)OC(N)=C(C#N)C2(C)C	-5%	-4%
104	Cc1cc(=O)c2cc(C(=O)Nc3ccc(C)c(C)c3)ccc2[nH]1	41%[activator]	-6%
105	CC(C)(C)NC(=O)CSc1nnc(-c2ccncc2)n1CC(F)(F)F	-7%	-8%
106	CC(C)(CNC(=O)Cc1n[nH]c(=O)c2ccccc12)c1ccc(Br)cc1	6%	-10%
107	COc1ccc(Nc2cc(C)nc3c(C)c(C)ccc23)cc1	5%	-2%
108	CC1=C(C(=O)Nc2ccc(F)cc2F)C2(CCCCCC2)OC1=O	23%	0%
109	Cc1c(C)c2ccc(OCC(=O)c3ccccc3)c(C)c2oc1=O	8%	-7%
110	Cc1ccc(NC(=O)c2nn(C)c3c2CS(=O)(=O)c2ccccc2-3)c(Cl)c1	7%	-9%
111	CCCN(CC(=O)NC(=O)Nc1ccccc1)Cc1ccc(C#N)cc1	6%	14%
112	Cc1nc2ccccc2c(C)c1CC(=O)NCc1ccc(OCC(F)(F)F)cc1	-5%	-19%
113	COc1ccc(NC(C)=O)cc1NC(=O)C1CCCN1C(=O)C12CC3CC(CC(C3)C1)C2 (stereo not given)	25%	-18%
